Source: PubChem (National Center for Advancing Translational Sciences (NCATS))
D2 ag – Beta-Arrestin HTS for Positive Allosteric Modulators of the Human D2 Dopamine Receptor: Agonists; D(2) dopamine receptor (Homo sapiens), P14416; DiscoveRx PathHunter D2 beta-arrestin, luminescence, 90 min; 100% = 57 uM dopamine signal; activation, % (concentration not given with the values); hit rate 0.084% among 360,000; in the data active = activation above about 40%; inconclusive = about 15% to 40%; inactive = below about 15%; further: compound concentration not given in the record; the text of the record calls up to 30% inactive
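DiscoveRx PathHunter D2 beta-arrestin cells (2,100/well) attached overnight, then compound-stimulated 90 min at 37 C in HBSS/10 mM HEPES/0.1% Tween-20 buffer; beta-galactosidase complementation read by luminescence after 1 h at ambient temperature. Dopamine 57 uM final (EC100) as control.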
PINK1 expr mod – A Quantitative High throughput Screen to Identify Chemical Modulators of PINK1 Expression. PINK1 immunofluorescence, high-content cytometry, 24 h. Potency, µM (titrated, usually from 76.6 µM), without a hit: at the top dose activation (PINK1 increase), hits mostly activators. hit rate 0.2% among 410,000. AID 624263, 2012; active = well fitted activation curve with a large enough effect; inconclusive = small, poorly fitted or top-dose-only effect; inactive = flat fitted curve, though single readings scatter; cell line not stated here;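 further: potency means the concentration at half of the fitted maximal effect; % of control where 0% means no effect; nearly all actives have a fitted effect of over 65% in size; a mitochondrial uncoupler was the plate control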
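Fluorescence from anti-PINK1 antibody, together with nuclear and cell stains, was scanned on a laser-scanning cytometer. Before staining, stable-line cells were incubated 24 hours with compounds at 5 concentrations; primary antibody 12 h at 10 degrees C.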
CtBP-E1A blk – qHTS Assay for Inhibitors of the CtBP/E1A Interaction. AlphaScreen GST-E1A/His-CtBP binding, 1536-well; active compounds read low; control for the full effect not named in the record. hit rate 0.49% among 340,000. activity change, % (no concentration beside the values). AID 651724, 2012; in the data active means activity change below about -65%; inconclusive means about -30% to -65%; inactive means above about -30%; further: on the % scale 0 is the no-effect control and ±100 the full control effect
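GST-E1A and His-tagged CtBP (125 nM each as 5X stock) were preincubated with pin-transferred compound for 2 h at 37 °C in the dark, then glutathione donor and nickel acceptor beads were added for 1 h before AlphaScreen reading.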
Six1-Eya2 blk – qHTS Assay for Inhibitors of the Six1/Eya2 Interaction; Homeobox protein SIX1 (Homo sapiens) + Protein phosphatase EYA2 (Homo sapiens), …; hit rate 0.56% among 360,000; activity change, % (test concentration not listed); AlphaScreen GST-Six1/His-Eya2 binding, biochemical; active compounds read low; control for the full effect not named in the record; in the data active = activity change below about -65%; inconclusive = about -30% to -65%; inactive = above about -30%; further: on the % scale 0 is the no-effect control and ±100 the full control effect
Target sequence (O00167 whole entry, looked up): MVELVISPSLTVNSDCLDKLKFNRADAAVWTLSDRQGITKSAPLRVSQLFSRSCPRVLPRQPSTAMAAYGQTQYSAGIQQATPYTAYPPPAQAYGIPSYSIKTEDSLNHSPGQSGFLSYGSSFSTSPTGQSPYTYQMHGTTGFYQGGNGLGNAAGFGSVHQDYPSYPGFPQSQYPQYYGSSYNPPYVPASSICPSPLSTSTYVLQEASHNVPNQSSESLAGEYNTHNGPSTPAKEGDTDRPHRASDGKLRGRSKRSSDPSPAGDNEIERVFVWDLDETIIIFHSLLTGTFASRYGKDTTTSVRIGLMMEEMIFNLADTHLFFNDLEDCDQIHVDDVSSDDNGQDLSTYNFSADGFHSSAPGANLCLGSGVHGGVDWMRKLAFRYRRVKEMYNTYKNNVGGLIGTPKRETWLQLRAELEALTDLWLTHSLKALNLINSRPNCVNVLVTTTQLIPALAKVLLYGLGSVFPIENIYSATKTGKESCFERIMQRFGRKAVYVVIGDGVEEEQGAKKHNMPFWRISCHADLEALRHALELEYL
Target sequence (Q15475 whole entry, looked up): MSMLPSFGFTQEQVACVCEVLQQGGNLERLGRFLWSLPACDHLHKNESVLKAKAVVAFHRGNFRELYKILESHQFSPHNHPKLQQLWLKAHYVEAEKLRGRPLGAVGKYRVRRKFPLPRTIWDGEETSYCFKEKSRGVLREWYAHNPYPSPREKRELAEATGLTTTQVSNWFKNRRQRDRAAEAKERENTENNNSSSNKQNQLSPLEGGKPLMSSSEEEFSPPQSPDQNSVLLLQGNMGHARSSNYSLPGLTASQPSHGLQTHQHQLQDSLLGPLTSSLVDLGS
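AlphaScreen with GST-Six1 and His-Eya2 (5X mix: 250 nM and 500 nM), glutathione donor and nickel acceptor beads; buffer 50 mM Tris pH 8.0, 300 mM NaCl, 1 mM TCEP; 1 h at 37 C in the dark.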
D2 PAM – Beta-Arrestin HTS for Positive Allosteric Modulators of the Human D2 Dopamine Receptor: Potentiators; D(2) dopamine receptor (Homo sapiens), P14416; DiscoveRx D2 beta-arrestin cells, luminescence, 90 min; 100% = 57 uM dopamine signal; potentiation, % (no concentration beside the values); hit rate 0.23% among 360,000; active = potentiation of 50% or more; inconclusive = 30% to 50%; inactive = 30% or less;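 further: compound concentration not given in the record; tested on top of an EC20 dose of dopamine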
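PathHunter beta-arrestin assay in DiscoveRx D2 cells. Compounds were added with an EC20 of dopamine (50 nM final) for 90 min at 37 deg C. Luminescence was read 1 h after detection reagent, with 57 uM dopamine as the EC100 control.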
TRPML1 ag – qHTS for Agonists of the Human Mucolipin Transient Receptor Potential 1 (TRPML1); activation, % (concentration not given with the values); hit rate 0.12% among 410,000; TRPML1-expressing cells, Ca2+ dye fluorescence, FDSS; host cell line not named in the record; reference of the full effect not given here; AID 624414, 2012; in the data active = activation above about 50%; inconclusive = about 30% to 50%; inactive = below about 30%; further: 0% is about no effect; the text of the record puts the active cut at 80%
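Tetracycline-induced TRPML1-DL cells are seeded and incubated overnight before loading with a no-wash Ca2+ dye and quencher. Agonist activity is taken from the 110 s fluorescence read following compound pin-transfer on an FDSS, before EC80 54-4 challenge.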
Active calls of the source: *; ? = inconclusive; · = no result given; & = joins results of further samples; [ ] = dose if it differs, or a comment.

Every second line gives: D2 ag, PINK1 expr mod, CtBP-E1A blk, Six1-Eya2 blk, D2 PAM, TRPML1 ag
> COCCN1Cc2cccc(C(=O)Nc3c(C)cccc3C)c2C1=O
    -3.1, -0.1%, -1, 7, -2, 0.0
> CCCCNc1c(-c2ccc(OC)c(Sc3ccc(OC)cc3)c2)nc2cnccn12
    -3.3, 28%, -1, 1, -6, 2.1
> COc1ccc(NC(=O)C2CCOC(C)(C)C2)cc1 (stereo not drawn)
    -1.3, -1.2%, 8, 2, -6, 0.6
> O=C(Cc1nnc(NC(=O)c2ccccc2)s1)N/N=C\c1ccc(O)c(O)c1
    -2.0, -1.8%, ·, 0, -16, -0.7
> NC(Cc1ccc(C(F)(F)F)cc1)c1csc(Nc2ccc(C(=O)NCc3ccco3)cn2)n1 (stereo not drawn)
    3.9, 0.6%, -22, -13, -11, 0.5
> CS(=O)(=O)N1CCN(c2ccccc2NC(=S)NC(=O)c2ccco2)CC1
    9.0, -1.9%, -3, -9, 22, -0.6
> CCOC1=C2CN(S(=O)(=O)c3ccc(C)cc3)[C@H](c3ccccc3)C[C@@H]2N(S(=O)(=O)c2ccc(C)cc2)[C@H](c2cccc(C)c2)C1
    -3.0, 1.2%, 0, 4, -1, 2.0
> O=C(CCc1ccccc1)N1CCN(CCO)CC1
    0.0, 0.5%, 10, 1, -6, -0.2
> COC(=O)c1ccc(-c2nc3cc(N)ccc3o2)cc1
    0.4, -1.6%, 9, 3, 13, -0.1
> O=C(Nc1nccs1)C1CCN(S(=O)(=O)c2cccnc2)CC1
    7.4, 1.7%, 1, -3, -9, -1.0
> Cc1cc(C)nc(-n2ncc3c2CC(c2cccc(Cl)c2)CC3=O)n1 (stereo not drawn)
    -6.2, 0.5%, -11, 0, 1, -0.8
> COc1ccc(NC(=O)CCCCCN2C(=O)CCC2=O)cc1Cl
    12, 7.5%[38.3 µM], 5, 2, 29, -0.7
> O=C(OCC(=O)N1CCN(C(=O)c2ccco2)CC1)c1sc2cc(F)ccc2c1Cl
    -1.2, -0.8%, 0, 5, -10, -0.2
> CCOC(=O)c1ccccc1NC(=O)c1ccc2nc[nH]c2c1
    -0.3, -0.8%, -3, -10, 1, ·
> CC(=O)Oc1c(C(=O)c2nnc(C)o2)c(=O)n(C)c2ccccc12
    0.5, 3.6%, 4, -14, 1, -0.5
> CCOc1c(C#N)c(C#N)c2nc(C)cc(C)n12
    0.7, -2.2%, 0, -5, -7, 2.2
> CCOc1ccc(Nc2nc(Cc3nnc(SCC(=O)N(CC)CC)n3C)cs2)cc1
    -1.0, 0.3%, -2, -3, -3, 0.2
> CC(NC(=O)CCc1c[nH]c2ccccc12)c1ccccc1 (stereo not drawn)
    -2.1, -1.2%, 3, 0, -1, 2.2
> CC1=C(C(=O)OC(C)C)C(c2ccco2)NC(=O)N1 (stereo not drawn)
    -2.4, -0.2%, 0, -4, -3, 0.5
> Cn1c(C(=O)Nc2ccc3c(c2)OCCO3)cc2sccc21
    -0.8, 8.0%[38.3 µM], -3, -10, -10, -0.5
> Cc1ccc(-n2nnnc2SCC(=O)c2cc(C)n(-c3cc(C)on3)c2C)c(C)c1
    -2.2, ·, 9, -10, 2, -0.3
> O=C(CCn1nnc2ccccc2c1=O)NCC1CCC(C(=O)O)CC1 (stereo not drawn)
    0.0, -2.8%, 7, 1, -7, -0.3
> ClCc1nc2ccccc2n1Cc1ccccc1
    -5.4, -0.3%, ·, 11, -24, -0.3
> Cc1ccc(S(=O)(=O)N(CCCO)Cc2cc3c(C)ccc(C)c3[nH]c2=O)cc1
    0.1, -0.1%[38.3 µM], -5, 2, -7, -0.5
> CCOC(=O)C(=COC(=O)c1ccccc1)NC(=O)Cc1ccccc1
    -1.9, -1.0%, 5, 18, -9, 0.1
> COc1cccc(-n2c(C)c3c(OC)cccc(=O)c3c2C)c1
    1.4, -0.1%, -5, -6, 30, 4.0
> Cc1ccc2c(c1)N(C(=O)CCC(=O)NC1CCCCCC1)CCO2
    -0.7, 1.8%, 1, 0, -11, 0.4
> Cc1ccc2nc3c(cc(C(=O)NC4CCCCC4)c(=N)n3C3CCCCC3)c(=O)n2c1
    -0.6, 22%, 2, 11, -2, 0.7
> CCOc1cc(N2CCOCC2)c(OCC)cc1NC(=O)Cn1cnnn1
    2.2, 0.5%, -5, 0, -2, 0.0
> CCCCC(=O)/C=C/n1c(=S)oc2ccccc21
    -4.7, 2.3%, 0, -11, -7, -0.3

Molecules from the list above containing an NH in an aromatic ring (3):
Every second line gives: D2 ag, PINK1 expr mod, CtBP-E1A blk, Six1-Eya2 blk, D2 PAM, TRPML1 ag
> CCOC(=O)c1ccccc1NC(=O)c1ccc2nc[nH]c2c1
    -0.3, -0.8%, -3, -10, 1, ·
> CC(NC(=O)CCc1c[nH]c2ccccc12)c1ccccc1 (stereo not drawn)
    -2.1, -1.2%, 3, 0, -1, 2.2
> Cc1ccc(S(=O)(=O)N(CCCO)Cc2cc3c(C)ccc(C)c3[nH]c2=O)cc1
    0.1, -0.1%[38.3 µM], -5, 2, -7, -0.5

The list continues.
Every second line gives: D2 ag, PINK1 expr mod, CtBP-E1A blk, Six1-Eya2 blk, D2 PAM, TRPML1 ag
> O=C1c2ccccc2C(O)N1c1ccc(Cl)cc1 (stereo not drawn)
    4.4, 0.0%, 4, 0, 6, -0.8
> O=C(O)CCC(=O)OCc1c(-c2ccccc2)ncc2ccccc12
    0.4, 0.1%, 4, -7, -13, 0.5
> COc1ccc(CCNC(=O)c2cc3ccccc3oc2=O)cc1
    5.1, 0.2%, 6, 1, -2, 0.1
> CCN(CC)c1ccc(NS(=O)(=O)c2ccc(-c3ccc(=O)[nH]n3)o2)c(C)c1
    13, -1.1%, ·, -4, -3, 0.6
> CCOc1c(Br)cc(CNc2ccc(N3CCOCC3)cc2)cc1OC
    12, 4.0%, ?, ?, 7, 0.5
> CC(=O)Nc1ccc(S(=O)(=O)N(C)CC(=O)NCCOc2ccccc2)cc1
    3.5, 1.2%, 4, -2, 1, 0.8
> Cc1cc(C)c(NS(=O)(=O)c2ccc3c(c2)NC(=O)C(C)C(=O)N3)c(C)c1 (stereo not drawn)
    -3.4, -1.1%, -23, -1, 4, 0.4
> Cc1cc(C)cc(OCC(=O)OCC(=O)N(C)CC(=O)Nc2ccc(F)cc2)c1
    4.2, -0.7%, 2, -1, 12, -0.5
> OC1Cc2ccccc2C1Nc1cccc(C(F)(F)F)c1 (stereo not drawn)
    -0.8, 9.0%, -7, 5, -3, 2.7
> COc1ccc(-n2c(SCC#N)nc3ccccc3c2=O)cc1
    -1.7, -1.3%, 8, 4, -10, 0.6
> C=CCOc1ccc(CN(C)Cc2nc3cc(C(F)(F)F)ccc3c(=O)[nH]2)cc1
    4.3, 4.6%, 6, 1, -8, 1.6
> O=C(/C=C/c1ccco1)NC(=S)Nc1ccc(Cl)cn1
    -4.1, 5.5%, -5, -4, -6, -0.6
> O=C(c1ccc(Cl)cc1)c1ccc(OCC(O)CN2CCCCC2)cc1 (stereo not drawn)
    -1.9, 3.5%, -5, -3, -3, 0.5
> O=C(COC(=O)C1CCC1)Nc1ccc(Cl)cn1
    0.5, -0.6%, 7, 0, -8, -0.4
> Cc1nc(NCc2ccccc2)sc1C(=O)Nc1ccccc1
    1.5, 2.8%, -3, 5, -1, 3.2
> CCOC(=O)C(C)Sc1ccc2nnc(-c3ccc(F)cc3)n2n1 (stereo not drawn)
    2.1, 5.1%[38.3 µM], -4, -2, 8, 1.9&-0.9
> Cc1ccc(-n2ncc(N(C)C)c(Cl)c2=O)cc1
    -5.9, -2.1%, -4, 2, 1, -0.2
> Cc1nnc(N2C(=O)C(=O)/C(=C(/O)c3ccc4c(c3)OCCO4)C2c2ccc(F)cc2)s1 (stereo not drawn)
    -2.2, -0.2%, -6, -6, 6, 7.0
> CCCCCc1c(C)nc(N2CCN(Cc3ccc4c(c3)OCO4)CC2)[nH]c1=O
    -6.6, 0.2%, ·, 9, -4, 0.0
> Cc1c(C)c2cc(Cl)c(OCc3nn[nH]n3)cc2oc1=O
    -4.5, 2.4%, -3, -20, -5, -0.5
> O=C(NCCN1CCOCC1)c1csc2c1CCCC2
    -1.3, -3.0%[38.3 µM], 16, 2, -29, -0.1
> COC(=O)c1ccc(NC(=O)CN(C)S(=O)(=O)c2ccc(OC)c(C)c2)cc1
    -1.5, 4.6%[38.3 µM], -4, -3, -2, 2.5
> Cc1cc(=O)n2cccc(O)c2n1
    2.4, 0.3%, ·, ?, -9, 0.3
> Cc1cc(C)c2c(c1)OC(=O)CC2c1ccc2c(c1)OCO2 (stereo not drawn)
    1.5, 3.5%, 5, 0, 1, -0.9
> CCc1nc2ccc(C(=O)NCc3ccccc3OC)cn2c1N(CC)Cc1cccc(Br)c1
    -2.7, 1.1%, -2, 0, -17, -0.1
> O=C(Cc1cc(=O)[nH][nH]1)N/N=C/c1c(Cl)cccc1Cl
    0.7&-1.4, -0.1%&4.8%, 3&0, -1&3, -22&13, 0.7&-0.5
> CC(/C=C\c1cccnc1)=C/C(=O)O
    1.7&0.1, -1.9%&-0.4%, 10&5, -4&-1, -19&2, 0.3&-1.4
> COc1ccccc1-c1nnc(SC(C)C(=O)Nc2ccc(C(N)=O)cc2)o1 (stereo not drawn)
    -1.7, -0.1%, 1, -4, 9, -0.7
> CCOC(=O)C(=CNc1ncccc1C)C(=O)OCC
    0.6, ·, 1, 3, -9, 2.7
> O=S(=O)(NCCN1CCCC1)c1ccc(Cl)cc1
    1.3, 1.0%, 6, 4, -23, 0.7
> COc1ccc(COc2cccc(C=O)c2)cc1
    0.0, 2.6%, 26, 17, -4, 0.2
> Cc1ccc(NC(=S)N(CCN(C)C)C(C)c2cccnc2)c(C)c1 (stereo not drawn)
    -2.0, 2.0%, -1, 0, -6, -0.1
> O=C(NCc1ccccc1C(F)(F)F)C1CC(O)CN1C(=O)Nc1ccccc1 (stereo not drawn)
    -1.7, 2.8%, ·, -1, 1, -0.5
> CC1=NN(c2ccccc2)C(=O)/C1=C\c1cn(CCC#N)nc1-c1ccc(Cl)cc1
    3.9, 3.6%, 9, 6, -4, 0.7
> Cc1ccccc1CC(=O)Nc1ccc2c(c1)c(=O)n(C)n2-c1cccs1
    -3.2, 1.1%, -18, 1, -11, 3.0
> CC1CCCCN1C(=O)c1c([N+](=O)[O-])cnn1C (stereo not drawn)
    -1.7, -0.3%, -2, 3, 0, -0.4

2 of these compounds, reformatted:
| Structure | D2 ag | PINK1 expr mod | CtBP-E1A blk | Six1-Eya2 blk | D2 PAM | TRPML1 ag |
| --- | --- | --- | --- | --- | --- | --- |
| O=C(NCc1ccccc1C(F)(F)F)C1CC(O)CN1C(=O)Nc1ccccc1 (stereo not drawn) | -1.7 | 2.8% | · | -1 | 1 | -0.5 |
| CC1=NN(c2ccccc2)C(=O)/C1=C\c1cn(CCC#N)nc1-c1ccc(Cl)cc1 | 3.9 | 3.6% | 9 | 6 | -4 | 0.7 |
